Screens as filed in PubChem.
H5N1 antiviral – antiviral screen in MDCK cells, H5N1 avian flu; cytopathic effect, luminescence, 72 h; stronger effect = higher value; no value below 0 was filed and about half of the inactive calls have no number; reference of the scale not given here; inhibition, % at 50 µM; 96,000 tested, 0.07% active; AID 740; in the data active = inhibition above about 25%
Starred values were filed as active, the others as inactive; i = inactive. Not all compounds are listed; count on the stated rates, not on these rows.

SMILES	H5N1 antiviral
COc1ccc(-c2nnn(CC(=O)N3CCOCC3)n2)cc1	i
Cc1cccc(C=Nc2ccccc2C(N)=O)c1	i
COc1ccc(CNC(=O)C2CC(=O)N(c3ccc(OCC(=O)N4C(C)CCCC4C)cc3)C2)cc1 (stereo unspecified)	4.7
CCOc1ccc(-n2cc(C(=O)N3CCCCCC3)c3cc(OC)c(OC)cc3c2=O)cc1	i
COc1cccc(C2C(C#N)=C(N)OC3=C2C(=O)CC(c2ccco2)C3)c1OCc1ccc(F)cc1 (stereo unspecified)	1.3
Cc1[nH]c(=S)[nH]c(=O)c1CCOc1ccccc1	i
CCOC(=O)c1ccc(N=C2S/C(=C\c3cc(C)n(-c4cccnc4)c3C)C(=O)N2C)cc1	i
CCOc1cc(N2CCOCC2)c(OCC)cc1NC(=O)COC(=O)CCc1c[nH]c2ccccc12	i
COc1ccc(NC(=O)C2CCN(C(=O)c3cccs3)CC2)cc1	0.2
CCS(=O)(=O)CCSC(=N)N	i
CCOC(=O)c1c(N)sc2c1CCC(CC)C2 (stereo unspecified)	i
COc1ccccc1CN(Cc1nc2ccccc2c(=O)[nH]1)S(=O)(=O)c1ccc(C)cc1	i
CCC(NS(=O)(=O)c1ccc(C)cc1)C(=O)Nc1ccc(NC(C)=O)cc1 (stereo unspecified)	0.6
Cc1ccc(CNC(=O)CSc2nc3n[nH]c(C)c3c(=N)n2-c2cccc(C)c2)cc1	1.8
CCCn1c(SCC(=O)N2CCc3ccccc32)nnc1-c1ccncc1	0.9
CC(=O)Nc1ccc(Oc2ccc(-c3noc(C)n3)cc2)cc1	0.2
COc1cc(/C=N/O)cc(Br)c1OS(=O)(=O)c1ccc(C)cc1	i
CCC(C)NC(=O)CSc1nc2ccc(N3CCOCC3)cc2c(=O)n1CCc1ccccc1 (stereo unspecified)	i
CC(=O)C1(C)N(O)C(C)(C)C(c2ccco2)=[N+]1[O-] (stereo unspecified)	i
COc1ccc(CC(=O)Nc2ccc(S(=O)(=O)N(C)C)cc2)cc1OC	0.2
COc1ccc(NC(=O)CSC2CCCCC2)cc1	i
Cc1cc(C)n2c(Br)c(CSc3nc4ccccc4o3)nc2n1	1.0
COc1cc(SC)ccc1C(=O)NC1CCCCC1	0.6
COc1ccc(C(=O)Cn2nnc(-c3ccc(N4CCOCC4)cc3)n2)cc1OC	i
CCOC(=O)c1nnn(-c2nonc2-c2ccccc2)c1C	i
COC(=O)CSc1nc(SCc2ccc(C)cc2)nc2c1CCCC2	i
N#CC1=C(N)OC2=C(CCC/C2=C/c2ccoc2)C1c1ccoc1 (stereo unspecified)	1.0
O=C(CSc1nnc(-c2ccccc2)o1)NC1CCCCC1	i
COc1ccc(C2CC(=O)C3=C(C2)NC(C)=C(C(=O)Nc2ccccc2C)C3c2coc3ccc(C)cc3c2=O)cc1OC (stereo unspecified)	i
Cc1cc(C)n(C(=O)c2ccc(C)o2)n1	0.8
CCCN(CCC)c1ncnc2c1cnn2-c1ccc(OC)cc1	i
CCOC(=O)Cc1csc(NC(=O)CSc2ncnc3c2cnn3-c2ccc(OC)cc2)n1	i
CCOC(=O)C1CCCN(C(=O)c2ccc(CS(=O)(=O)c3ccc(Br)cc3)o2)C1 (stereo unspecified)	3.1
CCCC(=O)N(Cc1cc2cccc(C)c2[nH]c1=O)c1ccccc1OC	1.6
CC(NC(=O)COC(=O)Cc1ccsc1)C1CC2CCC1C2 (stereo unspecified)	i
CC(NC(=O)Nc1ccccc1O)(C(F)(F)F)C(F)(F)F	2.3
Cc1[nH]n(-c2ccc([N+](=O)[O-])cc2)c(=O)c1C=NCCN1CCN(C(=O)c2ccccc2)CC1	i
COC(=O)c1ccc(CSc2nnc(C)s2)cc1	i
CC(C)CCSc1nc2c(c(=O)[nH]c(=O)n2C)n1CCCc1ccccc1	0.9
CS(=O)(=O)N(CC(=O)NCC1CCCO1)c1ccc(Cl)c(Cl)c1 (stereo unspecified)	0.3
Cc1cnc(C(=O)Nc2nnc(C)s2)cn1	i
O=C(CN1CCOCC1)NCc1ccccc1	1.5
COC(=O)CSc1nnc(SCc2ccc(OC)cc2)s1	i
CCOC(=O)C1=C(N)Oc2cc(O)ccc2C1c1cccnc1 (stereo unspecified)	i
CCN(CC)S(=O)(=O)c1ccc(-c2nnc(SCc3nnc(-c4ccc(C)cc4)o3)n2CC)cc1	0.2
CN(C)c1cccc(C(=O)NCC2CCCO2)c1 (stereo unspecified)	i
CCn1cc(C(=O)NC2CCCCC2C)c(=O)c2ccc(C)nc21 (stereo unspecified)	1.0
Cc1ccc(NC2(C#N)C(=O)Nc3ccccc32)cc1 (stereo unspecified)	i

Overlap with the part before: three compounds, then new ones.
SMILES	H5N1 antiviral
CN(C)c1cccc(C(=O)NCC2CCCO2)c1 (stereo unspecified)	i
CCn1cc(C(=O)NC2CCCCC2C)c(=O)c2ccc(C)nc21 (stereo unspecified)	1.0
Cc1ccc(NC2(C#N)C(=O)Nc3ccccc32)cc1 (stereo unspecified)	i
CC(=O)Nc1cccc(OCC(=O)NS(=O)(=O)c2ccc(Cl)cc2)c1	i
CCc1cccc(OCCCCNCCO)c1	i
CCc1ccc(-n2c(SCc3c(C)noc3C)nnc2-c2ccncc2)cc1	0.6
N#CCSc1nnc(COc2ccc3ccccc3c2)o1	i
C/C(=N\S(=O)(=O)c1ccc(C)cc1)N1CCN(S(=O)(=O)c2ccccc2)C1	2.2
COC(=O)c1ccc(Oc2nc(NC(C)C)nc(SC)n2)cc1	i
O=C(CSc1nnc2scc(-c3ccc(Cl)cc3)n12)NCc1ccc2c(c1)OCO2	2.7
Cc1cc(C)c2[nH]c(=O)c(C(c3nnnn3C(C)(C)C)N(Cc3ccco3)CC3CCCO3)cc2c1 (stereo unspecified)	1.0
Cc1cc(=O)n2[nH]c(-c3ccc(Cl)cc3)cc2n1	2.2
CCOC(=O)Nc1nc2ccccc2s1	i
O=C1CC(c2ccccc2)c2c(O)cc(O)cc2O1 (stereo unspecified)	0.2
Cc1c(NC(=O)CSc2nnc(-c3cccc(Cl)c3)o2)c(=O)n(-c2ccccc2)n1C	0.3
Cc1cc(C2(c3ccc(O)c(C)c3)C(=O)Nc3ccccc32)ccc1O	0.8
CCOC(=O)Cc1c(C)c2ccc(N(CC)CC)cc2oc1=O	0.9
COC(=O)/C(=C/c1cn(C)c2ccccc12)[N+](=O)[O-]	0.5
Cc1ccccc1NC(=O)/C(=C\c1cccs1)NC(=O)c1ccccc1	i
COc1ccc(-c2nnc3ccc(SCC(=O)NCc4ccco4)nn23)cc1	0.4
O=C(c1c(F)cccc1F)N1CCN(c2cccc(C(F)(F)F)c2)CC1	i
Cn1c(=O)c2c(nc(SCCN3CCOCC3)n2Cc2ccccc2Cl)n(C)c1=O	1.1
COc1ccc(CC(=O)Nc2c3c(nn2-c2cccc(C)c2C)CS(=O)C3)cc1OC (stereo unspecified)	i
O=C(Nc1ccccn1)c1ccc(=O)[nH]n1	6.4
O=C1NCC2=C1C(c1ccc(Br)cc1)Nc1ccccc1N2 (stereo unspecified)	0.3
COCC(C)OC(=O)C(C#N)c1nc2ccccc2nc1N1CCN(Cc2ccccc2)CC1 (stereo unspecified)	i
Cn1c(CS(=O)Cc2c(Cl)cccc2Cl)nnc1SCc1ccc(Cl)cc1 (stereo unspecified)	i

Ordered by formula weight (descending): 5 of the compounds above
SMILES	H5N1 antiviral
COc1ccc(-c2nnc3ccc(SCC(=O)NCc4ccco4)nn23)cc1	0.4
O=C(c1c(F)cccc1F)N1CCN(c2cccc(C(F)(F)F)c2)CC1	i
CCOC(=O)Cc1c(C)c2ccc(N(CC)CC)cc2oc1=O	0.9
COC(=O)/C(=C/c1cn(C)c2ccccc12)[N+](=O)[O-]	0.5
O=C(Nc1ccccn1)c1ccc(=O)[nH]n1	6.4

(more compounds)
SMILES	H5N1 antiviral
CS(=O)(=O)N(CC(N)=O)c1ccc(F)c(Cl)c1	0.0
COCCn1nnnc1CN(CCc1ccc(OC)c(OC)c1)Cc1cc2ccc(C)cc2[nH]c1=O	0.8
CCOC(=O)N1CCN(C(=O)Cn2ncn3nc(-c4cccs4)cc3c2=O)CC1	i
Cc1ccccc1NCCNc1ccccc1C	2.6
Cc1cc(=O)oc(C)c1C(=O)NCCCN1CCN(c2ccc(F)cc2)CC1	0.5
CC(=O)N1CCN(CC(=O)Nc2c(Cl)cccc2Cl)CC1	i
CCCNS(=O)(=O)c1ccc(OCC(=O)N2CCN(Cc3ccc4c(c3)OCO4)CC2)cc1	i
CCCCC(=O)Nc1ccc2c(c1)OCCO2	0.4
C(=C\c1ccccc1)/CN1CCN(Cc2ccc3c(c2)OCCO3)CC1	0.4
Cc1ccn2cc(CCNC(=O)c3ccc(Br)o3)nc2c1	1.5
Cc1oc(C)c(C(N)=O)c1C(N)=O	0.6
Cc1cccc(N/C=C/c2onc(C)c2[N+](=O)[O-])c1	1.6
CCc1nnc(NCn2nc(C)cc2C)s1	1.5
O=C(CN1C(=O)COc2ccc(Cl)cc21)Nc1ccc2c(c1)OCCO2	0.2
Cc1nn(Cc2ccccc2Cl)c(C)c1C(=O)NCc1ccco1	3.7
Cc1cc(NC(=O)Cn2nc(C(F)(F)F)c3c2CCC3)n(-c2ccccc2)n1	i
CCC(c1nnc(SCCNCCO)n1CCN1CCOCC1)N(C)C (stereo unspecified)	i
O=C(CSc1nc(-c2ccccc2)cc(=O)[nH]1)N1CCc2ccccc21	1.1
O=[N+]([O-])c1ccc(NCCCNS(=O)(=O)c2ccc(Cl)cc2)c(Cl)c1	2.6
O=S(=O)(c1ccc2c(c1)OCCO2)N1CCC(O)(c2ccc(Cl)cc2)CC1	0.2
Cc1cccc(NC(=O)CN2CCN(CC(=O)Nc3cccc(C)c3)CC2)c1	0.3
O=C(NC1CCN(C(=O)N2c3ccccc3Sc3ccccc32)CC1)c1ccccc1F	4.3
CC(=O)Nc1cccc(-c2csc(Nc3ccccn3)n2)c1	7.0
CC(OC(=O)c1nsc(Cl)c1Cl)C(=O)NCc1ccco1 (stereo unspecified)	0.3
O=C(CCc1ccccc1)N1CCN(CCO)CC1	0.0
C=CCN1C(=O)/C(=C2\SC(N3CCOCC3)=NC2=O)c2cc(Br)ccc21	1.7
COc1ccc(CCNC(=O)COC(=O)c2ccc[nH]c2=O)cc1	i
O=C(c1ccco1)N(Cc1ccc([N+](=O)[O-])cc1)c1ccc(Br)cc1	i
Cc1cc(=O)oc2cc(Oc3ncccn3)ccc12	4.3
CC(C)(C)Cc1nnc(NS(=O)(=O)c2ccc(F)cc2)s1	0.1
O=C(CSCc1ccccc1Cl)NN=C1CCCCCC1	1.3
Cc1cc(C)n2nc(-c3cccnc3)nc2n1	0.2
COc1ccc(-n2c(=O)cc(N3CCN(c4ccccc4OC)CC3)[nH]c2=O)cc1	i
CC(NC(=O)NC1CCCCC1)C(c1cccs1)N1CCN(c2ccccc2)CC1 (stereo unspecified)	1.4
Cc1ccc(CNC(=O)CSc2nc(N3CCCCC3)nc(N3CCCCC3)n2)cc1	6.8
COc1cc(CNCc2cccs2)ccc1OCc1ccccc1	i

3 entries drawn at random from those above, as already listed:
SMILES	H5N1 antiviral
Cc1cc(C)n2nc(-c3cccnc3)nc2n1	0.2
COc1ccc(-n2c(=O)cc(N3CCN(c4ccccc4OC)CC3)[nH]c2=O)cc1	i
CC(C)(C)Cc1nnc(NS(=O)(=O)c2ccc(F)cc2)s1	0.1

Following part
SMILES	H5N1 antiviral
O=C(CCCn1c(=O)[nH]c2ccsc2c1=O)N1CCCCC1	2.4
COC(=O)C(O)(c1ccc2c(c1)CCCN2)C(F)(F)F (stereo unspecified)	i
Cc1cc(C)n2c(SCCC(C)C)nnc2n1	i
CSc1nc2ccc(S(=O)(=O)Nc3c(C)n(C)n(-c4ccccc4)c3=O)cc2s1	i
O=S1(=O)CCN2C(=N1)Sc1c2ccc2c1CCCC2	0.6
CCCCC(CC)CNC(=O)c1[nH]c(C)c(C(C)=O)c1C (stereo unspecified)	i
CCCCS(=O)(=O)NC1=NCN(CC)CN1	0.2
NC(N)=N/N=C/c1ccc(OCc2ccc(Cl)cc2Cl)cc1	i
CC1(C)OC(=O)C(=CNCC(O)c2ccccc2)C(=O)O1 (stereo unspecified)	i
O=C(Nc1c(C(=O)Nc2cccc(F)c2)oc2ccccc12)c1ccc2c(c1)OCO2	i
CCOC(=O)C(C)Sc1ccc2nnc(-c3ccc(F)cc3)n2n1 (stereo unspecified)	i
NS(=O)(=O)c1ccc(CCNC2CC(=O)N(CCc3ccccc3)C2=O)cc1 (stereo unspecified)	0.8

Look-ups from the entries so far.
CC(=O)Nc1cccc(-c2csc(Nc3ccccn3)n2)c1 @ H5N1 antiviral: 7.0
CC(C)CCSc1nc2c(c(=O)[nH]c(=O)n2C)n1CCCc1ccccc1 @ H5N1 antiviral: 0.9
CCC(NS(=O)(=O)c1ccc(C)cc1)C(=O)Nc1ccc(NC(C)=O)cc1 (stereo unspecified) @ H5N1 antiviral: 0.6
CC(=O)Nc1ccc(Oc2ccc(-c3noc(C)n3)cc2)cc1 @ H5N1 antiviral: 0.2

Carrying on.
SMILES	H5N1 antiviral
O=C(/C=C/NNC(=O)c1cccc(Br)c1)c1cccc(Br)c1	i
N=c1c2c(n(Cc3ccc(Cl)c(Cl)c3)c3c1CCC3)CCCC2	i
CCC(=O)Nc1cccc(NC(=O)CSc2nnc(-c3ccc(NS(C)(=O)=O)cc3)n2CC)c1	0.4
COc1cc(C(=O)N2CCN(C(=O)Cc3ccccc3)CC2)cc(OC)c1OC	0.8
CCCNc1nc(-c2ccccc2)c(C(=O)OCC)cc1C#N	i
COc1cccc(N2CCN(c3c4c(nc5ncnn35)CCC4)CC2)c1	0.2
COC(=O)C(C(=O)OC)N1C(=O)CCC1=O	i
COc1ccc(Oc2coc3c(CN(C)C)c(O)ccc3c2=O)cc1	i
Cn1nnc(NC(=O)COc2ccc(C3CCCCC3)cc2)n1	1.9
Cc1csc(NC(=O)Cc2c[nH]c3ccccc23)n1	0.0
COc1c(C)cccc1C(=O)Nc1cc(Cl)ccc1N1CCOCC1	i
CCNC(=O)NC(=O)C(C)OC(=O)c1cc(S(=O)(=O)N2CCCCCC2)ccc1OC (stereo unspecified)	0.2
O=C(Cn1c(=O)n(Cc2ccccc2)c(=O)c2ccccc21)NCc1ccco1	1.2
O=C(Nc1ccc(OC(=O)c2cccnc2)cc1)c1cccnc1	i
CCCc1cc(C(=O)Nc2ccc(C)cc2)no1	i
